Compound activity (PubChem)
PABP FP inh = PABP poly(A) RNA binding inhibitors, primary screen, biochemical, fluorescence polarization, uHTS; inhibition, % at 35 µM; 1% of 290,000 active; AID 2014, 2009;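 active = 50% or more with normal probe brightness, or confirmed in later tests; inconclusive = above 50% with abnormal brightness, or retests that disagree; inactive = below 50% or failed in later tests; about a fifth of its hits are not listed in these tables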;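 also: calls also rest on retests at 20 µM and on dose response follow-up; controls were probe without protein and protein plus probe with vehicle; some compounds called inactive have numbers as strong as hits; many hits fall short of the cut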
Target sequence (P11940 whole entry, looked up): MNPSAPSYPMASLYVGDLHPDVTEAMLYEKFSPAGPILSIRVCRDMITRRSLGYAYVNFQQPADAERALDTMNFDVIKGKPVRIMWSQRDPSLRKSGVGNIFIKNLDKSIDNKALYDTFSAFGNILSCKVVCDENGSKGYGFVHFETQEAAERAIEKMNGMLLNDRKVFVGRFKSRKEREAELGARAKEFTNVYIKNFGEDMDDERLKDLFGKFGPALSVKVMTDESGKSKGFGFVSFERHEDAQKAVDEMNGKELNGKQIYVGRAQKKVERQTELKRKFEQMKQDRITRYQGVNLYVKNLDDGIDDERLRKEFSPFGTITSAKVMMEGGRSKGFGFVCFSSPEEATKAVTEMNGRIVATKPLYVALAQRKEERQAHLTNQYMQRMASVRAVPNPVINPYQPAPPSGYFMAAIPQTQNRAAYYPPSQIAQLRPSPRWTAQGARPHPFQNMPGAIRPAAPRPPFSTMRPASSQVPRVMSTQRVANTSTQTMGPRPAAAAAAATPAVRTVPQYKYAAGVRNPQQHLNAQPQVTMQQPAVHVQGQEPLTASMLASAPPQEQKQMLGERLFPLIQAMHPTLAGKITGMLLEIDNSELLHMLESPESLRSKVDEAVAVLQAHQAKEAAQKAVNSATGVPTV
Rce1 inhib = yeast Rce1p protease inhibitors, primary screen, biochemical, fluorescence, cell-free homogeneous. CAAX prenyl protease 2 (Saccharomyces cerevisiae (strain ATCC 204508 / S288c)), Q03530. yeast membranes, quenched prenylated peptide cleavage fluorescence. calls only. 0.27% of 290,000 active. AID 2563, 2010;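 active = fall in fluorescence gain of 50% or more versus controls, with final raw signal at or below 3038400; inconclusive = same 50% fall but final raw signal above 3038400; inactive = fall in fluorescence gain under 50%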;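 also: plate controls were neutral control wells for no effect and wells lacking membranes for full effect; tested at 10 µM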
Target sequence (Q03530 whole entry, looked up): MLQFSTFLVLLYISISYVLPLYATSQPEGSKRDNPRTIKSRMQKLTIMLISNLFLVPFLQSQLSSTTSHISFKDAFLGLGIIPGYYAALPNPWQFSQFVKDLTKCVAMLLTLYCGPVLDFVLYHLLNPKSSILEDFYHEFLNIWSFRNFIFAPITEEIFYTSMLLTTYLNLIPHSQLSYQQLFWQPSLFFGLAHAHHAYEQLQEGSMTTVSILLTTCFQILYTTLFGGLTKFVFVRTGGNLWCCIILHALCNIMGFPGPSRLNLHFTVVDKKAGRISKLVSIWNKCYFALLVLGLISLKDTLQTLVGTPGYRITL
CSC inhib = cancer stem cell viability inhibitors, primary screen, luminescence; cancer stem cell-like cells viability; inhibition, % at 7.5 µM; 1.1% of 300,000 active;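 active = mean at 75% or more and at least half the replicates too; inconclusive = mean and replicates disagree; tested in HMLE shEcad cells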;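 also: 0% = median of negative and 100% = median of positive control wells; the first replicate is given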
HIV Env fusion = inhibitors of HIV-1 Env-driven cell-cell fusion, primary screen, HeLa-JRFL effector, CEM21 target cells, luciferase. inhibition, % at 12.3 µM. 1.1% of 360,000 active;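 active = mean replicate inhibition score of at least 50 and every replicate individually at or above 50; inconclusive = only one of the two criteria met; inactive = mean below 50 and not all replicates reaching 50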;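 also: 0% = plate neutral controls and 100% = maraviroc near 300 nM; one replicate is shown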
UUG fidelity = modulators of yeast start codon fidelity, primary screen, whole organism, S. cerevisiae, single point, plate reader | S. cerevisiae UUG-firefly luciferase reporter, luminescence/redox ratio | 0.13% of 350,000 active | activity score, % at 18.7 µM;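 active = replicate mean at a twofold rise or more, about +100% in these data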;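 also: firefly luciferase made from a UUG start codon reports start codon fidelity; reporter light over untreated wells divided by growth signal over untreated wells; some hits fall short of that in this replicate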
eIF4H inh = human eIF4H binding inhibitors, primary screen, translation initiation inhibitor project, biochemical, uHTS, fluorescence polarization; Eukaryotic translation initiation factor 4H (Homo sapiens), Q15056; eIF4H fluorescence polarization binding assay; inhibition, % at 35 µM; 0.94% of 290,000 active;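 active = 50% or more with normal probe brightness, or confirmed in later tests; inconclusive = above 50% with abnormal brightness, or retests that disagree; inactive = below 50% or failed in later tests; about a fifth of its hits are not listed in these tables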;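 also: calls also rest on retests at 20 µM and on dose response follow-up; 0% = protein and probe with vehicle and 100% = probe without protein; strong numbers were not always called active; many hits fall short of the cut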
MT1-MMP act inh = blockers of MT1-MMP proenzyme processing, primary screen, HT1080 RFP-PRO-GFP cells, GFP/RFP fluorescence; Matrix metalloproteinase-14 (Homo sapiens), P50281; GFP/RFP ratio fluorescence, overnight; percent of plate control window, DMSO zero; GFP/RFP ratio change, % at 20 µM; 0.061% of 360,000 active;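 active = GFP/RFP ratio change of at least 30% with cell ATP level not reduced by more than half and red fluorescence within 50% of control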; also: strong numbers were not always called active
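Material – HT1080 RFP-PRO-GFP cells · Control set – DMSO wells and RFP-L50D-GFP cells · Incubation – overnight cell settling, then overnight compound exposure, 37 °C, 5% CO2 · Compound dosing – single-point 20 µM compound, 1% DMSO · Read-out – GFP/RFP fluorescence ratio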
eIF4H inh retest = further read-out of eIF4H inh, marked with its call; inhibition, %; compound at 20 µM; confirmation average;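 mean of two retest wells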
PABP FP inh retest = also measured in PABP FP inh; calls as there; inhibition, %; compound at 20 µM; confirmation repeats;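 mean of two retest wells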
MT1-MMP act inh RFP = also measured in MT1-MMP act inh; calls as there; RFP signal change, %; measured here: RFP expression control read;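 0 = vehicle wells; hits needed this value within 50% of zero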
An asterisk follows results filed as active; i = inactive; ? = inconclusive; / = not tested or not shown; & = joins results of further samples.

SMILES	PABP FP inh	Rce1 inhib	CSC inhib	HIV Env fusion	UUG fidelity	eIF4H inh	MT1-MMP act inh	MT1-MMP act inh RFP	others
O=C(CN1C(=O)S/C(=C\c2ccccn2)C1=O)Nc1ccc(F)cc1	1	i	-8	-16	-11	-11	-4	3
O=C1C(=O)N(C2CCS(=O)(=O)C2)C(c2cccc(O)c2)/C1=C(/O)c1ccc(Cl)cc1 (stereo not given)	4	i	-5	-3	-18	-4	-1	3
CCOC(=O)C1CCN(C(=O)c2ccc(Br)o2)CC1	11	i	0	-64	-8	-1	5	4
O=C(c1ccco1)N1N=C(C2CCCCC2)CC1(O)C(F)(F)F (stereo not given)	8	i	7	4	/	-8	-4	-2
Cc1ccc(CNC(=O)CCS(=O)(=O)c2ccc3c(c2)CC(C)N3C(=O)C2CC2)o1 (stereo not given)	4	i	-16	-8	-12	-5	-2	1
CCOC(=O)c1cnc(Nc2ccccc2)nc1C(F)(F)F	-2	i	-4	-28	/	3	2	-7
CC(=O)c1cc(C(=O)c2ccccc2)sc1Nc1ccccc1	-8	i	2	24	-1	-10	-10	-5
Cn1c(C(=O)N[C@@H](C(=O)O)c2ccccc2)cc2cc(Cl)ccc21	39*	i	-4	-120	-6	62	-14	4	eIF4H inh retest=13;PABP FP inh retest=96*
CS(=O)(=O)c1ccc(Cl)c(NC(=O)Nc2ccccc2)c1	-8	i	1	8	-18	2	-2	-3
CC(=O)c1ccc(NC(=O)C2CC(=O)N(C(C)C)C2)cc1 (stereo not given)	0	i	/	6	-11	3	4	4
CCOC(=O)C1(CCCc2ccccc2)CCN(C(=O)C(C)n2cncn2)CC1 (stereo not given)	-9	i	-8	13	-19	-7	0	-2
CCN(CC(=O)N1CCOCC1)S(=O)(=O)c1ccc(Cl)cc1	4	i	8	-6	-3	-2	-2	1
O=C(O)c1ccc(COc2ccccc2[N+](=O)[O-])o1	4	i	-3	0	12	0	1	2
COc1ccc(C(=O)OCCOc2ccccc2C(C)=O)c(O)c1	-3	/	0	-2	/	1	5	0
CCOC(=O)c1sc2nc(C)nc(SC(C)C(=O)NC3CC3)c2c1C (stereo not given)	/	/	11	/	-9	/	1	1
O=C(CSc1nnnn1C1CC1)Nc1cc(S(=O)(=O)N2CCCC2)ccc1Cl	/	/	-11	5	-5	/	-1	-2
O=C(CN1C(=O)/C(=C/c2ccccc2F)Sc2ccccc21)NCCCN1CCOCC1	-10	i	-17	4	-6	-8	0	1
Cc1ccc(Cl)c(NC(=O)CN(C)CC(=O)Nc2ccc(F)c(F)c2F)c1Cl	29	i	-7	7	4	-7	-1	2
CC(C)OP(=O)(OC(C)C)C(Nc1ccccn1)c1ccc(F)cc1 (stereo not given)	-13	i	3	4	/	-4	5	10
COc1ccc(C2CC(=O)Oc3ccc(OC)cc32)cc1 (stereo not given)	/	/	/	-17	-2	/	1	5
CCN(CC)C(=S)NC(=O)Cc1ccccc1	-2	i	-6	18	/	0	-1	1
COc1cc(/C=C2/SC(=S)N(CCC(=O)Nc3ccccc3)C2=O)cc(OC)c1OC	/	i	14	-10	-2	/	9	4
CN(Cc1ccccc1F)C(=O)c1ccccc1Sc1ccccc1C#N	14	i	-3	-5	-3	-8	-2	1
Cc1cc(OCC(=O)Nc2ccc(S(=O)(=O)N3CCN(C)CC3)cc2)ccc1Br	2	i	32	2	-4	8	0	-5
CCCN(C(=O)c1cc(Cl)nc2ccccc12)C1CCS(=O)(=O)C1 (stereo not given)	/	i	-16	/	/	/	-1	6
CCOc1ccccc1N(CC(=O)NCCc1ccccc1)C(=O)CCC(=O)Nc1ccccn1	1	i	-16	-8	5	2	-2	3
COc1ccc(CCNc2nc(N3CCCCC3)nc(N3CCCCC3)n2)cc1OC	-2	i	34	/	10	-16	-11	-13
CCCc1nnc2n1N=C(c1ccc(OC)c(OC)c1)CS2	4	i	-9	/	/	4	0	7
C/C(=N\NC(=O)c1ccoc1C)c1cccnc1	0	i	-6	/	-3	0	1	4
COc1cc(OC)cc(OCC(O)Cn2cnc(-c3ccccc3)c2)c1 (stereo not given)	-3	i	-2	/	-10	6	3	2
COc1ccc2[nH]c(=O)c(CN(Cc3cccnc3)C(=S)NCC3CCCO3)cc2c1 (stereo not given)	11	i	5	4	/	-2	0	5
Cc1nc2ccccn2c1-c1ccnn1S(=O)(=O)c1ccc(F)cc1	-5	i	30	15	-23	-1	-4	-25
COc1ccc(C(=O)/C=C/C(=O)N(Cc2ccccc2)C(C(=O)NC2CCCCC2)c2ccncc2)c(O)c1 (stereo not given)	12	i	0	/	-16	0	-3	-6
COc1ccc([N+](=O)[O-])cc1NC(=O)Nc1ccc(OC)c(OC)c1	-10	i	3	19	-5	-4	9	-16
Nc1nc(-c2sc3nc4c(cc3c2N)CCCC4)nc(N2CCOCC2)n1	-3	i	19	/	-15	0	17	-2
CC(=O)N1SC(N)=NC1c1ccccc1 (stereo not given)	-2	i	-5	-8	-5	0	1	-2
O=C(CSc1nnc(-c2ccccn2)n1Cc1ccco1)c1ccccc1	-7	i	9	-3	-26	-1	0	-2
Cc1ccc(S(=O)(=O)n2nc(-c3ccco3)nc2N)cc1	7	/	32	14	/	-3	2	6
CCOc1ccc(S(=O)(=O)N(CC)CC(=O)N2CCOCC2)cc1C	12	i	-7	4	-20	6	-1	0
Cn1c(=O)c2cc(S(=O)(=O)NCCC(=O)N3CC=C(c4ccccc4)CC3)ccc2n(C)c1=O	7	/	-12	/	-10	-13	2	6
CCN(CC)Cc1oc(CO)cc(=O)c1O	22	i	-4	-6	/	88	-1	0	eIF4H inh retest=-10;PABP FP inh retest=-3
Cc1cccnc1NC(=O)c1ccc(S(=O)(=O)N2CCCC2)cc1	/	/	/	-14	-21	/	1	7
COc1ccc2[nH]cc(CCNC(=O)Cc3ccc(Br)cc3)c2c1	-19	i	10	14	33	-7	2	-7
O=C1CCc2cc(S(=O)(=O)NCCC(=O)NC3CCN(Cc4ccccc4)CC3)ccc2N1	-3	/	-2	-6	-12	5	5	2
Nc1nc2ccccc2n1CCOc1ccc(Cl)cc1	-4	i	1	?	-15	-9	2	-1
Clc1ccc(CN2C3=NCCN3c3ccccc32)cc1Cl	-6	i	-2	-77	-24	-10	-3	-2
CCCCCn1c(N2CCN(Cc3ccccc3)CC2)nc2c1c(=O)[nH]c(=O)n2C	-1	i	-13	-61	-9	9	8	-2
C(=NOCCc1ccccc1)c1cccnc1	/	/	/	-41	-6	/	-5	2
Cc1ccc(S(=O)(=O)NC(C(=O)N2CCOCCOCCOCCOCC2)c2ccccc2)cc1 (stereo not given)	4	i	18	-3	/	1	-2	2
Cc1ccc(CNC(=O)/C=C/c2ccc(S(=O)(=O)NCc3ccco3)cc2)cc1	-1	i	/	2	-13	-3	5	-3
COc1cc(NC(=O)c2cc([N+](=O)[O-])ccc2N2CCOCC2)ccc1NC(=O)c1ccco1	3	i	6	9	-1	-5	-4	-2
COC(=O)Cc1c(O)ccn(Cc2ccccc2OC)c1=O	12	i	-4	/	-2	1	10	2
O=C(Nn1c(-c2ccc(Br)cc2)nc2ccccc2c1=O)c1cccnc1	-3	i	-4	-6	-22	13	-2	2
COc1ccc(-c2coc3c(CN4CCOCC4)c(O)ccc3c2=O)cc1	-13	i	-13	8	3	1	5	1
Cc1cc(C)n(CC(O)CN2C(=O)NC(C)(C)C2=O)n1 (stereo not given)	6	i	-19	11	-21	10	-1	-4
Cc1cc(C)c2[nH]c(C(=O)Nc3ccc(F)cc3Br)cc2c1	12	i	7	-5	-21	-4	-7	0
Cc1ccc(NC(=O)c2cc(-c3ccc(C)o3)nc3ccccc23)nc1	6	i	4	/	-13	8	-14	-1
CC(CNC(=O)CCc1ccccc1)NC(=O)CCc1ccccc1 (stereo not given)	/	i	1	6	-20	/	-2	1
C[C@H](CO)N1C[C@H](C)[C@@H](CN(C)C(=O)NC2CCCCC2)Oc2c(NS(=O)(=O)c3cn(C)cn3)cccc2C1=O	/	/	-10	14	-3&14	/	-1	-2
O=[N+]([O-])c1ccc(NNC(=S)Nc2ccccc2)cc1	16	i	-11	/	-36	-2	10	-10

5 entries already listed, arranged by length of the SMILES, highest first.
SMILES	PABP FP inh	Rce1 inhib	CSC inhib	HIV Env fusion	UUG fidelity	eIF4H inh	MT1-MMP act inh	MT1-MMP act inh RFP	others
COc1cc(NC(=O)c2cc([N+](=O)[O-])ccc2N2CCOCC2)ccc1NC(=O)c1ccco1	3	i	6	9	-1	-5	-4	-2
Cc1ccc(CNC(=O)/C=C/c2ccc(S(=O)(=O)NCc3ccco3)cc2)cc1	-1	i	/	2	-13	-3	5	-3
Cc1ccc(NC(=O)c2cc(-c3ccc(C)o3)nc3ccccc23)nc1	6	i	4	/	-13	8	-14	-1
O=[N+]([O-])c1ccc(NNC(=S)Nc2ccccc2)cc1	16	i	-11	/	-36	-2	10	-10
COC(=O)Cc1c(O)ccn(Cc2ccccc2OC)c1=O	12	i	-4	/	-2	1	10	2

Continued.
SMILES	PABP FP inh	Rce1 inhib	CSC inhib	HIV Env fusion	UUG fidelity	eIF4H inh	MT1-MMP act inh	MT1-MMP act inh RFP	others
O=C(O)CCc1ccc(-c2ccc(Cl)cc2)n1CCC(=O)O	17	i	/	/	4	8	15	5
Cc1cc(Cl)cc(C)c1OCC(=O)O	4	i	-8	/	-8	1	7	2
O=C(CCCc1nc(-c2ccccc2)no1)NCc1cccnc1	-1	i	-4	37	-7	9	3	-8
CCn1c(=O)cc(SCC(=O)NCC2CCCO2)c2ccccc21 (stereo not given)	-2	/	1	-16	-12	5	5	5
Clc1cccc(CNCCNCc2cccc(Cl)c2)c1	-10	i	-11	-12	/	-6	5	3
O=C(c1cccs1)N1CCC(c2nc3ccccc3s2)CC1	-4	i	0	/	8	-1	0	-8
COc1ccc(C(CC(=O)NCCN2CCOCC2)NS(=O)(=O)c2ccc(C)cc2)cc1 (stereo not given)	3	i	0	/	0	6	-1	-1
Cc1ccc(C(C)C)c(OCC(=O)NS(=O)(=O)c2ccc(Cl)cc2)c1	-3	i	-10	4	-3	1	-1	2
Cc1[nH]c2ccccc2c1C(=O)CSc1cccc[n+]1[O-]	2	i	-10	10	-18	3	-1	0
CC1(C)CC(=O)C(=CN2CCN(C(=O)c3ccco3)CC2)C(=O)C1	4	i	/	/	/	2	5	5
O=C(O)CCC(=O)N1CCOc2ccc(Cl)cc21	-13	i	-18	/	/	-12	0	3
CCOC(=O)c1nnn(-c2nonc2-n2cccc2)c1CN1CCCCC1	2	i	-14	/	7	1	/	/
O=C(Nc1cccnc1)C1CCCN1S(=O)(=O)c1ccc(Cl)c(Cl)c1 (stereo not given)	5	i	-4	/	-21	-7	5	-3
COc1cc(Cn2c(-c3ccc(O)c(OC)c3)nc3ccccc32)ccc1O	-9	i	-3	-40	/	-2	-4	-11
CCCc1nnc(NC(=O)C(=O)NCCN(CC)CC)s1	-5	i	/	-2	/	-3	3	1
CCCN1C(=O)c2ccc(C(=O)Nc3ccccc3C(=O)O)cc2C1=O	6	i	-11	-37	-14	6	1	-2
CCc1nnc(NC(=O)CSc2ncc(-c3ccccc3)[nH]2)s1	1	i	-3	/	-17	-4	0	1
